Sa helicase inh: inhibitors of S. aureus replicative helicase, primary screen, biochemical, fluorescence unwinding readout. inhibition, %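 (tested at about 80 µM)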. replicative DNA helicase (DnaC/DnaB), Staphylococcus aureus. purified S. aureus helicase, fluorescence unwinding assay; about half of the hits fall short of the stated cut. actives 0.05% (n = 120,000);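 active = both duplicates at 50% or more, or one of them with a favoured structure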;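 also: 0% = mean of negative control wells and 100% = mean of positive control wells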
MgrA-DNA mod: S. aureus MgrA activity modulators, primary screen, biochemical, S. aureus Newman, fluorescence polarization. inhibition, %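 (about 10 µg/mL by stock and volumes)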. MgrA-DNA binding. actives 0.13% (n = 84,000). AID 602314, 2012;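 active = above 50% in either of two replicates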;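 also: 0% = protein plus DNA without compound and 100% = DNA alone without protein; higher means less MgrA bound to DNA so lower polarization; one replicate is shown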
Numbers without * were called inactive; / = not tested or not shown.

SMILES	Sa helicase inh	MgrA-DNA mod
O=C(CN1C(=O)S/C(=C\c2ccc(Cl)cc2)C1=O)Nc1cc([N+](=O)[O-])ccc1O	/	0.3
CCOC(=O)c1ccccc1CSC(=N)N	/	2.8
CCOC(=O)/C(C#N)=N\Nc1cc(C(N)=O)cc(C(N)=O)c1	7	-0.2
CCCc1nc2nc(C)cc(NCCN3CCN(c4cccc(Cl)c4)CC3)n2n1	-2	/
COc1ccc(CN(C)C(=O)c2cccc(S(=O)(=O)N3CCOCC3)c2)cc1F	5	/
CN1CCN(/N=C/C2=C(O)CC(c3ccccc3)CC2=O)CC1 (stereo not drawn)	25	-0.5
COc1ccc2[nH]c3c(c2c1)CCNC3CC(=O)O (stereo not drawn)	4	-1.6
COc1ccc(CCN=C2SCC(=O)N2Cc2ccccc2)cc1OC	8	1.6
O=S(=O)(Cc1ccccc1)Nc1noc2ccccc12	8	-5.0
COC(=O)c1ccc(OCc2ccc(Cl)nc2)cc1	/	1.1

Brought forward from above: 6 compounds, then new ones.
SMILES	Sa helicase inh	MgrA-DNA mod
COc1ccc(CN(C)C(=O)c2cccc(S(=O)(=O)N3CCOCC3)c2)cc1F	5	/
CN1CCN(/N=C/C2=C(O)CC(c3ccccc3)CC2=O)CC1 (stereo not drawn)	25	-0.5
COc1ccc2[nH]c3c(c2c1)CCNC3CC(=O)O (stereo not drawn)	4	-1.6
COc1ccc(CCN=C2SCC(=O)N2Cc2ccccc2)cc1OC	8	1.6
O=S(=O)(Cc1ccccc1)Nc1noc2ccccc12	8	-5.0
COC(=O)c1ccc(OCc2ccc(Cl)nc2)cc1	/	1.1
Cc1ccc(S(=O)(=O)NC(=O)Nc2ccc(OC(F)(F)F)cc2Br)cc1	/	-2.5
CCCCN(C)C(=O)c1cn(C)c2ccc(S(=O)(=O)N(CC)CC)cc2c1=O	-13	/
Cc1coc(C)c1C(=O)CC1(O)C(=O)Nc2cc(Cl)cc(Cl)c21 (stereo not drawn)	2	1.0
CC(=O)N1c2ccccc2C(=O)C1N(Cc1ccccc1)C(C)C (stereo not drawn)	5	/
Cc1cc(C)n(-c2n[nH]c(=S)n2N)n1	5	-1.6
CC1=CC(=O)OC1Cc1ccc2ccccc2n1 (stereo not drawn)	13	6.9
Oc1c(Cl)cc(Cl)cc1C1Nc2cccc3cccc(c23)N1	/	-1.6
CS(=O)(=O)NCc1c(Cl)cccc1Sc1ccc(Cl)cc1	/	-2.5
COC(=O)c1cc(-c2cccnc2)nn1-c1nc(C)cc(C)n1	-6	/
O=C(Nc1ccccc1F)c1cc2c(Cl)ccc3c2n1CCO3	12	/
COc1ccc(C2=NC(c3sccc3C)NC(c3cc(Cl)ccc3O)C2)cc1 (stereo not drawn)	18	5.4
Cc1nc(C)c(C(=O)N/N=C/c2cc(Br)ccc2O)s1	23	/
Cn1c(C(=O)c2ccccc2)nc2ccccc21	16	/
O=C1CNC(=S)N1Cc1ccncc1	/	-2.3
C=CCn1c(SCC(=O)Nc2ccc3c(c2)OCO3)nnc1-c1ccccc1F	5	/
Cc1cc2nnc(SCC(=O)Nc3ccccc3F)n2c2ccccc12	/	-1.2
CCOC(=O)c1sc(NC(=NC)c2ccco2)cc1C	-2	/
O=C1c2ccccc2C(=O)c2c1oc1c3c(ccc21)OCN(CCC1=CCCCC1)C3	6	/
Nc1nc(C23CC4CCC(CC(C4)C2)C3)cs1	9	2.0
O=C(Nc1ccccc1F)NC1CCN(Cc2nnnn2Cc2ccc(F)cc2)CC1	11	-1.0
COc1cc(CCC(=O)NCc2ccc(S(N)(=O)=O)cc2)cc(OC)c1OC	4	/
Nc1nonc1C(=O)NCc1ccco1	-2	-0.3
CC(=O)CCc1c[nH]c2ccccc12	/	0.6
CC(C)(C)C(=O)Nc1sc2c(c1C#N)CCN(Cc1ccccc1)C2	-29	/
O=C(Cn1c2ccccc2c2cn[nH]c(=O)c21)N1CCCCC1	7	0.1
O=C(NCc1nc(-c2ccccc2)cs1)c1ccccc1	-9	-0.3
Cc1ccc(CNCc2cccn2-c2nc3ccccc3s2)cc1	-9	/
Cc1ccc(S(=O)(=O)NCc2ccc(/C=N/NC(=O)c3ccco3)o2)cc1	-7	0.9
CN(C)Cc1ccc(CNC(=O)c2ccc[nH]2)cc1	12	/
Cn1nc(CC(=O)Nc2ccc(N3CCN(C(=O)OC(C)(C)C)CC3)cc2)c2ccccc2c1=O	9	-2.1
COC(=O)C1=C(CNCCc2ccccc2)NC(=O)NC1c1ccc(OC)c(OC)c1 (stereo not drawn)	11	3.2
N#CC(C(=O)c1ccc(F)cc1)c1ccccn1 (stereo not drawn)	-12	/
COc1cc(/C=C2\SC(NC(C)=O)=NC2=O)ccc1Oc1ccc(C(F)(F)F)cc1[N+](=O)[O-]	/	0.6
COc1cccc2c(=O)cc(C)[nH]c12	5	-1.5
Cc1cccc(C(=O)OCC(=O)Nc2ccc3[nH]c(=O)[nH]c3c2)c1C	-12	/
CC(C)Cc1csc2ncnc(NCCO)c12	12	/
O=S(=O)(c1ccc(Cl)cc1)N1CN(C2CCCC2)c2nc3ccccc3nc21	6	/
CCCCOc1cccc(-c2nnc(NC(=O)OC)s2)c1	9	4.2
CCCCN1COc2c(cc(Cl)c3cccnc23)C1	8	4.7
CCN1CCN(c2ccc(Cl)cc2NC(=O)C2CCCN2C(=O)c2cccs2)CC1 (stereo not drawn)	7	/
O=C(N/N=C/c1ccc(O)c(O)c1O)c1ccc(NS(=O)(=O)c2ccc(Br)cc2)cc1	6	/
O=C1N=C(N2CCOCC2)SC1=C1CCCCC1	7	-0.1
C[C@]12CCC(=O)C=C1CCC1C2[C@@H](O)C[C@@]2(C)C1CC[C@]2(O)C(=O)COC(=O)CCC(=O)O (stereo partly drawn)	/	1.6
COc1ccc(-c2cc(C3CCN(c4nc(N)c5cc(OC)c(OC)cc5n4)CC3)[nH]n2)cc1OC	0	/
COc1ccc2oc(-c3ccccc3)c(C(=O)O)c2c1	-12	/
Cc1nn(-c2ccccc2)c(C)c1C(=O)NCC1(N(C)C)CCCCC1	-4	/
CC1=CC(C)(C)N(C(=O)CSc2ncccn2)c2ccc(C)cc21	-21	/
O=C(OCC(=O)N1CCCc2ccccc21)c1ccccc1Cl	2	/
COC(=O)c1cccc(NC(=O)c2ccc(C(C)(C)C)cc2)c1	/	-2.5
Cn1ncc(Cl)c1C(=O)O	8	-2.9

Sorted by heavy-atom count (rising): part of the list above
SMILES	Sa helicase inh	MgrA-DNA mod
O=C1CNC(=S)N1Cc1ccncc1	/	-2.3
N#CC(C(=O)c1ccc(F)cc1)c1ccccn1 (stereo not drawn)	-12	/
Cc1ccc(S(=O)(=O)NCc2ccc(/C=N/NC(=O)c3ccco3)o2)cc1	-7	0.9

Next section.
SMILES	Sa helicase inh	MgrA-DNA mod
Cc1ccc(Nc2nc3nonc3nc2NC2C3CC4CC(C3)CC2C4)cc1C (stereo not drawn)	16	/
COc1ccc(S(=O)(=O)N2CCN(C(=O)Cc3ccsc3)CC2)cc1	-7	/
O=C(CN1C(=O)S/C(=C\c2ccc(F)cc2)C1=O)Nc1ncc(Cc2ccccc2Cl)s1	/	2.3
CCCOC(=S)NC1OCC(OC(C)=O)C(OC(C)=O)C1OC(C)=O (stereo not drawn)	1	-0.5
O=C(Nc1nc(-c2cc(Cl)sc2Cl)cs1)c1ccc([N+](=O)[O-])s1	/	0.8
O=C(Nc1nc2ccccc2[nH]1)c1cc(F)c(F)cc1Cl	11	-1.1
CC1=CCC2C(=O)N(c3cccc(C(=O)N(C)C4CCCCC4)c3)C(=O)C2C1 (stereo not drawn)	23	/
CSc1nc(C)nc(C2CC2)c1C#N	/	-2.1
O=C(NCCCN1CCOCC1)c1ccc(CS(=O)(=O)Cc2ccc(Cl)cc2)o1	4	/
O=C(/C=C/c1ccco1)NCc1ccco1	11	3.0
O=C(CCC1CCCCC1)NC1C=CS(=O)(=O)C1 (stereo not drawn)	7	/
N#Cc1c(N)nc2c(c1-c1cccnc1)CCCCCC2	1	1.2
CCCC(NC(=O)C(C)N)C(=O)O (stereo not drawn)	/	2.6
CCOc1cc(C)c(Cl)cc1S(=O)(=O)N1CCN(CC)CC1	-14	4.6
O=c1oc(-c2cccs2)nc2c(Br)cc(Br)c(F)c12	/	1.1
Cc1nc(C2CC(=O)OC23CCCCC3)cs1 (stereo not drawn)	-12	/
O=C(c1ccc2c(Cl)c3c(nc2c1)CCCC3)N1CCCCCC1	5	-0.5
N#Cc1cccc(NC(=O)C2CCCC2)c1	11	/
COc1ccc(CC(=O)c2ccccc2C(=O)O)cc1	5	-2.9
O=C(CCN1C(=O)c2cccc([N+](=O)[O-])c2C1=O)NCC1CCCO1 (stereo not drawn)	/	-1.5

Another view of part of the listing above.
COc1ccc(CC(=O)c2ccccc2C(=O)O)cc1
  Sa helicase inh = 5 | MgrA-DNA mod = -2.9
CCCC(NC(=O)C(C)N)C(=O)O (stereo not drawn)
  Sa helicase inh = / | MgrA-DNA mod = 2.6

The list continues:
SMILES	Sa helicase inh	MgrA-DNA mod
O=c1cc(Cn2nnc(-c3ccccc3)n2)[nH]c(=O)[nH]1	23	/
COCC(C)n1c(COc2ccccc2F)nnc1SC/C(O)=C(\C(=O)OC)c1nc2ccccc2[nH]1 (stereo not drawn)	-4	/
CSc1nc(Nc2ccc(F)cc2)c(C#N)c(-c2ccccc2)n1	-28	/
CCCCCCCCCCOC(=O)c1cc([N+](=O)[O-])cc2c1-c1ccc([N+](=O)[O-])cc1/C2=N\O	/	-0.7
Cn1c(=O)c(C(=O)NC2CCCCCC2)c(O)c2ccccc21	4	2.1
CCC(C)NS(=O)(=O)c1ccc(-n2cccn2)cc1 (stereo not drawn)	-11	1.8
O=C1C2C3C=CC(C3)C2C(=O)N1c1ccc(-c2nc(-c3ccccc3)c3ccccc3n2)cc1 (stereo not drawn)	/	3.1
COc1cccc(-c2cc(=O)c3ccccc3o2)c1N	/	1.6
Cc1ccc(-c2ccc(=O)n(CC(=O)NC3CCCC3)n2)cc1	8	0.1
CC1(C)CC(=O)c2sc(NC(=O)CCOc3ccccc3)nc2C1	-15	/
O=C(CCCSc1ccccc1)Nc1ccc2c(c1)OCO2	5	/
CCSC1=C(C#N)C(=O)NC(c2ccco2)S1 (stereo not drawn)	4	-0.6
Cc1nc2ccccc2nc1SCC(=O)N1CCCC1	11	/
COc1cccc(-c2[nH]nc(SC)c2C#N)c1	-9	/
CCCc1nc2ccccc2n1C(=S)SC	12	0.4
O=C(CCCOc1ccccc1)Nc1ncn[nH]1	11	0.5
COc1ccc(CCNC(=O)C2CC(=O)N(C3CCCC3)C2)cc1OC (stereo not drawn)	7	/
CCNC(=S)N1CCC(NC(=O)C23CC4CC(CC(C4)C2)C3)CC1	2	-0.5
CC(=O)Nc1ccc(-n2c(C)nc(=O)c(-c3ccccc3)c2C)cc1	3	1.4
CN(C)S(=O)(=O)N(Cc1ccc(C(C)(C)C)cc1)c1ccccc1	-1	/
C=CCOc1ccc(-c2ccc(C#N)cc2)cc1	-8	/
Cc1cc(F)ccc1S(=O)(=O)Nc1ccccc1C(=O)Nc1cccnc1	-2	/
Cc1noc(C)c1CSc1nc2ccccc2c(=O)n1CCc1ccc(S(N)(=O)=O)cc1	2	/
Cc1oc2c(C)c(OC(=O)c3ccco3)ccc2c(=O)c1-c1nc2ccccc2s1	1	/
CN(C(=O)c1ccc(-n2cnnn2)cc1)C1CC(C)(C)N(C)C(C)(C)C1	6	/
Cc1ccc(S(=O)(=O)NCC(Sc2nnc(-c3cccs3)n2C2CC2)c2ccccc2)cc1 (stereo not drawn)	-4	/
CCNc1c(NS(=O)(=O)c2cccc(C#N)c2)c(=O)oc2ccccc12	0	0.2
O=C(Cc1nn[nH]n1)Nc1ccc(F)cc1F	/	-3.0
CCCCc1ccc(C(=O)Nc2cc3cccc(OC)c3oc2=O)cc1	-4	/
CC(C)N(C(=O)c1noc2c1CCc1sccc1-2)C1CCCCC1	21	/
CCc1ccc(N2NC(=O)/C(=C/c3ccc4c(c3)n(C)c(=O)n4C)C2=O)cc1	8	1.4
O=C(Nc1ccc(F)c(F)c1)c1sc2ccccc2c1Cl	/	0.7
O=C(Nc1ccc2oc(-c3cccc4ccccc34)nc2c1)c1ccc([N+](=O)[O-])cc1[N+](=O)[O-]	/	3.5
O=S(=O)(c1ccccc1)c1ccccc1C(F)(F)F	/	1.0
CCOC(=O)c1c(N)n(CC(C)NC(=O)COc2ccccc2)c2nc3ccccc3nc12 (stereo not drawn)	8	/
O=c1c2ccccc2c(/C=N/c2ccnn2Cc2ccco2)c(O)n1-c1cccc(C(F)(F)F)c1	0	/
NS(=O)(=O)c1ccc(CCNC(=O)C2CCN(c3nc4ccccc4n3Cc3ccc(F)cc3)CC2)cc1	10	/
CC(C)Oc1ccc(C(=O)Nc2ccnn2C2CCCCC2)cc1	1	/
Cc1cc(C)c(CN(C)C)c(O)c1	/	2.1
CC(c1cccs1)n1nccc1NC(=O)c1cnc2ccccc2n1 (stereo not drawn)	11	/
CN(C(=O)COC(=O)Cc1ccc(Br)cc1)c1ccccc1	16	2.8
Cc1sc(=[N+]2CCCCC2)sc1SCC(=O)O	-4	-1.1
CCSc1nc2ccccc2n1CC(=O)N1CCOCC1	3	/
COc1ccc2c(c1)CCc1c(C(=O)N3CCCCC3)noc1-2	-8	/
CCc1ccc(/C=C/C2=CC(C)(C)NC(=S)N2)cc1	9	5.7
O=C(CN1C(=O)c2cccnc2Sc2ccccc21)N1CCN(c2ccccc2F)CC1	17	/
Cc1nc2cc(COC(=O)c3ccccc3)ccc2s1	-18	0.6
CCSc1nnc(CCNC(=O)NC2CCCCC2)n1C	-3	-1.0
Cc1ccc(C2=NS(=O)(=O)N(C)C(C(=O)N3CCCCC3C)=C2)cc1 (stereo not drawn)	9	-1.9

This is a subset, so the mix of outcomes need not match the whole.
